# Compound activity as filed in PubChem.
# BJeLR lethal: BJeLR cell viability loss | BJeLR (HRASV12) viability, CellTiter-Glo ATP luminescence, 48 h; reference of the scale not given here | inhibition, % (concentration not given with the values) | hit rate 0.17% among 300,000;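 active = replicate mean above 50%; inconclusive = above 50% but judged a plate artefact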;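 note: 50 nL library stock added to about 25 µL; numbers are from one replicate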
# ugtP null kill: kills S. aureus RN4220 lacking UgtP. hit rate 0.54% among 330,000. S. aureus RN4220 ugtP deletion, OD600 growth, 16 h; some inactives read as strong as hits. growth inhibition, % (concentration not given with the values);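 active = z-score under -3 and OD600 up to 0.15 on both plates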;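 note: plate controls were untreated wells for no effect and antibiotic for full effect; wells of about 80 µL received 100 nL stock; the first replicate is given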
# Autofluor counter: flagged as autofluorescent in microsphere protease counterscreen; compound autofluorescence counterscreen, microsphere flow cytometry; stronger effect = higher value; fluorescence intensity (concentration not given with the values); hit rate 3.1% among 360,000;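 active = at least 3 SD above the mean of all compounds, about 16000 in these data; inconclusive = too few beads counted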;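 note: 100 nL of 1 mM stock went into each well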
# PrP 5UTR inh: suppresses PrP 5' UTR mRNA reporter expression; inhibition, % (concentration not given with the values); hit rate 0.35% among 340,000; cell-based PrP 5' UTR mRNA reporter, plate reader;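 active = every replicate at 50% or more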;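 note: 0 = median of the neutral control wells; tested in H4 reporter cells; numbers are from one replicate; inactives centre near -14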
# Mtb hypoxia rep: Mtb hypoxia fluorescent reporter inhibition; M. tuberculosis hypoxia-regulated fluorescent reporter, fluorescence; fluorescence inhibition, % (test concentration not listed); hit rate 0.1% among 300,000;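 active = 35 to 45% if threefold the growth effect, above 45% if 1.5-fold the growth effect; inactive = the rest, general growth blockers included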;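 note: wells of about 50 µL received 100 nL stock; 0% = vehicle wells and 100% = reference inhibitor wells; whole bacteria with a GFP reporter of the hypoxia response; strong numbers were not always called active; many hits fall short of the cut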
# RN4220 kill: S. aureus RN4220 growth inhibition | hit rate 0.33% among 330,000 | AID 1259311 | inhibition, % (concentration not given with the values) | OD600, 16 h;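 active = z-score of -3 or lower and OD600 up to 0.18 on both plates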;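 note: plate controls were untreated cells for no effect and reference antibiotic for full effect; stock transfer was 100 nL into about 80 µL; one replicate is shown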
# Mtb hypoxia rep growth: further read-out of Mtb hypoxia rep, marked with its call; growth inhibition, %; measured here: M. tuberculosis growth (absorbance);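 0% = vehicle and 100% = reference antibiotic; read after six days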
# * = called active by the depositor; ? = inconclusive; . = not tested or not shown.
SMILES,BJeLR lethal,ugtP null kill,Autofluor counter,PrP 5UTR inh,Mtb hypoxia rep,Mtb hypoxia rep growth,RN4220 kill
NCCCCCc1nnc(SCC(N)=O)o1,37,6,3164,4,4,-2,7.1
COc1ccc(CN(Cc2ccc(C(=O)O)cc2)C(=S)Nc2ccccc2C)cc1OC,-3,6,4235,-25,3,12,3.6
COc1ccc(OCc2cc(C(=O)NCCCc3ccccc3)no2)c(Cl)c1,-2,3,5172,-9,10,10,-3.7
COc1ccc(CN(C(=O)c2ccc(-c3ccccc3)[nH]2)C(C(=O)NCC2CCCO2)c2ccc(C)o2)cc1 (stereo not given),-14,-14,8381,-36,-9,5,-6.4
C#CC[N+](C)(C)CC#Cc1ccc(Cl)cc1,0,1,2334,-1,2,0,2.1
O=C(CCc1ccccc1)Nc1ccccc1[N+](=O)[O-],-8,7,2146,-46,-1,-4,9.0
O=C(Nc1ccc(Cl)c(Cl)c1)c1ccco1,-2,5,3303,-80,15,6,5.2
CC(=O)n1nc(-c2ccccc2)nc1NCc1ccc(F)cc1,-5,3,4540,-32,-3,-8,0.7
CCOc1ccccc1NC(=O)C1CCCN(S(=O)(=O)c2ccc3c(c2)C(C)(C)C(=O)N3C)C1 (stereo not given),10,9,5687,-18,8,11,5.1
COc1ccc(C2/C(=C(/O)c3cnn(-c4ccccc4)c3C)C(=O)C(=O)N2CCN(C)C)cc1OC (stereo not given),.,0,5531,1,11,-3,1.9
O=C(C1CCCO1)N1CCN(C(=S)Nc2ccc(Cl)cc2)CC1 (stereo not given),2,4,1999,-16,4,14,4.0
CCOP(=O)(Nc1ccc2oc(=O)c3ccccc3c2c1)OCC,-2,11,3604,-10,12,5,6.4
O=C(Nc1ccc(S(=O)(=O)N2CCOCC2)cc1)c1ccc(=O)[nH]c1,1,2,.,.,3,-1,-0.9
COc1cc(NN=C(C)c2ccc(O)c(C)c2)nc(-c2ccccc2)n1,.,83,.,.,13,-4,15
Cc1ccc(-n2c(C)cc(/C([O-])=C(/C(=S)Nc3ccc(F)c(Cl)c3)[n+]3ccccc3)c2C)cc1,0,-8,8929,-13,-3,14,-2.7
O=C(NCCN1C(=O)S/C(=C\c2ccc(OC(F)F)cc2)C1=O)c1cnccn1,26,3,6898,-37,7,0,7.6
CCOc1ccc(CC(=O)Nc2ccc(S(=O)(=O)Nc3cc(C)on3)cc2)cc1OCC,-2,-8,9146,-23,5,13,4.2
COc1cccc(-c2csc(N3CCN(C(=O)Nc4ccccc4OC)CC3)n2)c1,-2,2,21006*,-5,4,0,-2.5
COc1cc(C=NNC(=O)CCN2CCN(Cc3ccccc3)CC2)cc(OC)c1OC,.,3,.,.,2,14,1.1
Cc1ccc(CNC(=O)CSc2ccc(-c3ccco3)nn2)cc1,5,3,8481,-20,-12,-1,2.7
O=c1c2ccccc2nc(CNc2ccccc2)n1-c1ccccc1,-9,-6,.,-19,-15,-3,2.1
Cc1cccc(C(C(C(=O)c2ccccc2)N2CCOCC2)N2CCOCC2)c1 (stereo not given),.,5,3418,-20,16,7,3.3
O=C1C2ON(c3ccc(Cl)cc3)C(c3ccco3)C2C(=O)N1c1ccccc1 (stereo not given),2,0,2745,-14,-9,-4,2.1
Cc1nc(-c2ccc3c(c2)CCC(=O)N3)cs1,-6,-7,5682,-17,0,14,-1.9
CC(=O)/C(N=Nc1nc2c([nH]1)c(=O)n(C)c(=O)n2C)=C(\C)O,0,0,4678,-9,-7,4,4.0
# Continuation.
SMILES,BJeLR lethal,ugtP null kill,Autofluor counter,PrP 5UTR inh,Mtb hypoxia rep,Mtb hypoxia rep growth,RN4220 kill
CCC(C)N1CCCCC1C(=O)Nc1c(C)cc(C)cc1C (stereo not given),3,1,13780,-24,1,5,2.0
C/C(=N\Nc1ccc([N+](=O)[O-])cc1)c1ccc(-n2nncc2C)cc1,15,.,3104,-15,.,.,.
CNC(=O)O/N=C(\N)Cc1csc2ccc(Cl)cc12,-6,.,4432,-3,.,.,.
COc1cc2c(cc1OC)NC(=O)C2,.,4,2905,-22,9,2,4.0
CCC(C)(C)NC(=O)CN(CCc1cccc(C)c1)C(=O)c1csnn1,-4,8,4053,-31,4,-5,1.6
COc1ccc(Cl)cc1C(=O)O/N=C(\N)c1ccccn1,-3,3,3904,-84,7,-11,4.7
O=C(CN1C(=O)SC(=Cc2ccc(N3CCOCC3)cc2)C1=O)N1CCOCC1,.,2,.,.,8,2,3.3
CC(=O)Nc1ccc(NC(=O)Cn2c(=O)n(-c3ccccc3)c(=O)c3oc4ccccc4c32)cc1,-5,3,3915,-17,9,11,1.3
C/C(CC(=O)Nc1ccc(Cl)cc1C(F)(F)F)=N\NC(=O)c1ccccn1,-8,.,6104,-12,.,.,.
c1ccc(-c2noc(CSc3nnc(Cc4cccs4)n3-c3ccccc3)n2)cc1,-1,2,3454,-8,.,.,13
Cc1ccc(C2=NN(S(=O)(=O)c3ccccc3)C(c3ccccc3O)C2)cc1 (stereo not given),-4,18,11550,-29,1,3,0.5
CCCCNC(=O)C1C2C=CC3(CN(Cc4ccc(C)cc4)C(=O)C13)O2 (stereo not given),2,4,3497,-11,7,7,2.2
Cc1cc(NC(=O)c2cc3ccccc3oc2=O)no1,.,-10,5403,-64,-1,5,6.0
COc1ccc2c(c1)C(C)=CC(C)(C)N2C(=O)CN1C(=O)CCC1=O,1,0,4910,-43,.,.,7.5
Cc1cc(CSc2ccccc2)ccc1NC(=O)COc1ccccc1,6,-2,3197,-22,.,.,0.2
COc1ccc(-c2nnc(Nc3ccc(S(=O)(=O)Nc4nccs4)cc3)c3ccccc23)cc1,-11,-6,4183,-10,13,4,5.9
COc1ccc(OCC(=O)OCC(=O)Nc2ccc(S(=O)(=O)N3CCCCC3)cc2)cc1,-9,-8,3548,-21,15,7,-13
CC1CC(C)CN(C(=O)Cn2c(SCC(=O)N3CCc4ccccc4C3)nc3ccccc32)C1 (stereo not given),5,2,4589,-6,.,.,5.8
CCOC(=O)C(NC(C)=O)C(=O)Nc1ccc(C)cc1C (stereo not given),-4,6,2061,2,8,-3,4.8
Cc1ccc(OCC(=O)NNC(=O)C2CCN(c3nccc(C)n3)CC2)cc1,1,4,9590,2,7,0,1.4
CCN(CC)CCN(C(=O)c1ccc(S(=O)(=O)N(CC)c2ccccc2)cc1)c1nc2c(OC)ccc(OC)c2s1,2,-9,7466,-19,4,1,5.0
COc1ccc(N2CCN(C3CCN(S(=O)(=O)c4ccc(F)cc4)CC3)CC2)cc1,-9,8,5324,-19,-2,11,17
COC(=O)CC1C(=O)NC2CCCCC2N1C(=O)CCl (stereo not given),-20,9,.,2,17,6,-0.2
O=C(CNC(=O)c1sc2ccccc2c1Cl)NCc1ccccc1,-3,-1,5249,2,1,5,0.6
O=C(Nc1nc2ccc(F)cc2s1)c1ccc(N2CCCC2=O)cc1,4,-1,.,-150,-2,-5,2.0
# (cont.)
SMILES,BJeLR lethal,ugtP null kill,Autofluor counter,PrP 5UTR inh,Mtb hypoxia rep,Mtb hypoxia rep growth,RN4220 kill
O=C(c1ccccc1)N1CCSc2sccc2C1=O,9,5,4315,58*,4,-1,1.5
CC(C)(C)OC(=O)NCc1ccc(NC(=O)c2nc[nH]c2C(=O)NC(Cc2ccccc2)C(=O)OCc2ccccc2)cc1 (stereo not given),.,5,.,.,-3,4,2.1
Cc1ccc(S(=O)(=O)N2CCC(N3CCN(C)CC3)CC2)cc1Cl,-9,9,4384,0,-2,-6,8.4
CCCS(=O)(=O)N1CCC(C(=O)NC2CCCC(C)C2C)CC1 (stereo not given),-2,3,2462,1,4,10,-26
O=C(CN(Cc1ccco1)C(=O)c1ccc(Cl)cc1)Nc1c(Cl)cc(Cl)cc1Cl,0,-8,2025,-9,3,4,1.7
N#CC1(Nc2ccc([N+](=O)[O-])cc2)CCCC1,.,0,4265,-8,8,1,3.4
NS(=O)(=O)c1cccc(NC(=O)CN2CCCc3ccccc32)c1,3,-8,4741,-26,0,9,1.0
Cc1cc(Cl)ccc1OCc1nc(-c2ccncc2)no1,8,-1,.,.,10,1,1.4
Cc1cccc(-c2nnc(N)s2)c1,1,3,2128,-12,.,.,1.5
O=C(COC(=O)CC(c1ccccc1)c1ccccc1)Nc1c(F)cccc1F,-13,31,.,.,8,-5,-5.0
CCOc1ccc(NC(=O)C(CC(=O)O)Cc2ccc(Br)cc2)cc1 (stereo not given),-20,15,3945,-26,6,-1,4.8
CC(C)Cc1ccc(S(=O)(=O)NCC2CCCO2)cc1 (stereo not given),-7,2,3764,-6,3,15,2.9
Cc1ccc(-c2csc(NC(=O)c3cccc([N+](=O)[O-])c3C(=O)O)n2)cc1,-1,4,4496,-21,-2,-2,3.7
O=C(CN1CCN(S(=O)(=O)c2ccc(Cl)cc2)CC1)NCc1cccs1,-6,3,?,0,0,3,1.7
O=S(=O)(NCCSc1ccccc1)c1ccc2c(c1)OCCO2,4,11,3961,-22,8,8,2.6
Cc1ccc2oc(C(=O)N3CCC(N4CCSCC4)CC3)c(C)c2c1,5,4,6804,2,9,9,0.1
CCOC(=O)c1ccc(COC(=O)c2cc(=O)[nH]c3ccccc23)o1,17,-10,2585,5,.,.,-4.3
O=S(=O)(c1ccc(Cl)c(NC(=S)Nc2cccc(O)c2)c1)N1CCOCC1,-1,5,7234,2,-3,-2,-1.1
CN(C(=O)Cn1nnc(-c2cccc(C(F)(F)F)c2)n1)C1CCCCC1,3,-1,.,-21,19,4,-6.1
CC(C)CCNC(=O)CN(Cc1ccccc1Cl)C(=O)CCC(=O)Nc1ccccn1,5,-4,3909,-15,-7,-3,-3.4
CCN(CC)CCNC(=O)c1cc(-c2ccc(Br)s2)nc2ccccc12,-6,9,4200,-5,6,4,-2.0
Cc1csc(NC(=O)c2cccc(S(=O)(=O)N3CCN(C)CC3)c2)n1,-2,4,3992,-7,4,5,4.5
CCCCNC(=O)CCn1nc(-c2ccccc2)ccc1=O,-2,5,11300,-13,8,1,2.6
COc1ccc(C2SCCN2C(=S)Nc2ccc(Cl)cc2)cc1 (stereo not given),1,-1,7971,-28,7,0,-4.4
CC(CNC(=O)c1ccc(C(C)(C)C)cc1)CN(C)C (stereo not given),-1,1,2011,-14,-3,6,0.3

# Sorted by count of non-hydrogen atoms (low to high): six of the compounds above
SMILES,BJeLR lethal,ugtP null kill,Autofluor counter,PrP 5UTR inh,Mtb hypoxia rep,Mtb hypoxia rep growth,RN4220 kill
CC(C)Cc1ccc(S(=O)(=O)NCC2CCCO2)cc1 (stereo not given),-7,2,3764,-6,3,15,2.9
CCCS(=O)(=O)N1CCC(C(=O)NC2CCCC(C)C2C)CC1 (stereo not given),-2,3,2462,1,4,10,-26
Cc1ccc(S(=O)(=O)N2CCC(N3CCN(C)CC3)CC2)cc1Cl,-9,9,4384,0,-2,-6,8.4
CCOc1ccc(NC(=O)C(CC(=O)O)Cc2ccc(Br)cc2)cc1 (stereo not given),-20,15,3945,-26,6,-1,4.8
O=C(COC(=O)CC(c1ccccc1)c1ccccc1)Nc1c(F)cccc1F,-13,31,.,.,8,-5,-5.0
CC(C)CCNC(=O)CN(Cc1ccccc1Cl)C(=O)CCC(=O)Nc1ccccn1,5,-4,3909,-15,-7,-3,-3.4

# Back to the main list; the 2 compounds before the break are reprinted first.
SMILES,BJeLR lethal,ugtP null kill,Autofluor counter,PrP 5UTR inh,Mtb hypoxia rep,Mtb hypoxia rep growth,RN4220 kill
COc1ccc(C2SCCN2C(=S)Nc2ccc(Cl)cc2)cc1 (stereo not given),1,-1,7971,-28,7,0,-4.4
CC(CNC(=O)c1ccc(C(C)(C)C)cc1)CN(C)C (stereo not given),-1,1,2011,-14,-3,6,0.3
COc1ccc(-c2cc(C(=O)Nc3cccc(S(=O)(=O)NCc4ccco4)c3)c3ccccc3n2)cc1OC,10,.,5591,-8,.,.,.
CCc1cc2cc(C)cc(C)c2[nH]c1=S,0,-3,4459,-15,7,7,6.0
CC1CN(C(C)CO)C(=O)c2cc(NC(=O)Nc3ccc(C(F)(F)F)cc3)ccc2OC1CN(C)C(=O)Nc1ccc(F)cc1 (stereo not given),.,-4,.,.,-11,5,-3.4
CCCCC(CC)C(=O)NCCc1ccc(S(N)(=O)=O)cc1 (stereo not given),-1,0,23826*,-55,9,3,0.7
Cc1ccccc1N1CCN(C2CCCN(C(=O)c3cc(CC(C)C)nn3C)C2)CC1 (stereo not given),0,5,5732,-17,14,11,-1.2
Cc1nn2c(-c3ccc(S(=O)(=O)N4CCN(C)CC4)o3)nnc2c2ccccc12,-4,2,5610,-1,6,8,0.5
CC(C)n1c(O)c(N=NC(=O)CNC(=O)CCc2ccccc2)c2ccccc21,6,1,3915,-28,-1,-5,2.3
O=C(Nc1ccc(CN2CCCCC2)cc1)c1ccc2c(c1)OCO2,-1,-3,20600*,-13,6,12,7.0
